High-throughput results as filed in PubChem BioAssay.
INS promoter inh – TRM-6 insulin promoter activity inhibition | inhibition, % at 2 µM | 130,000 compounds, 0.9% hits | TRM-6 cells (human fetal islet line), insulin promoter-eGFP reporter, imaging; reporter expression induced with tamoxifen;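 active = inhibition above the mean plus 3 SD, with well images judged a real hit on visual review, cut at about 60% in these data, passing the limit was not always enough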
HSV augment – increases HSV replication in cells; HSV replication augmentation in cells, fold increase; maximum fold increase; 220,000 compounds, 0.005% hits;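 active = peak rise of 1.5-fold or more in the series; tested in PC3 cells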;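 note: first round at 10 µM; read as green reporter fluorescence; hits show the peak of a series up to 25 µM; 1 = signal of infected wells without compound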
GALR2 agonist – GALR2 (human) receptor agonism | O43603 | GALR2-expressing cells, agonist activation read-out | activation, %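 (tested at 5 µM)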 | 140,000 compounds, 0.48% hits | AID 803;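 active = above mean plus 3 SD of all compounds, about 5% in these data, not always enough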;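 note: 0% = vehicle buffer wells and 100% = reference agonist at full effect; tested in CHO reporter cells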
Target sequence (O43603 whole entry, looked up): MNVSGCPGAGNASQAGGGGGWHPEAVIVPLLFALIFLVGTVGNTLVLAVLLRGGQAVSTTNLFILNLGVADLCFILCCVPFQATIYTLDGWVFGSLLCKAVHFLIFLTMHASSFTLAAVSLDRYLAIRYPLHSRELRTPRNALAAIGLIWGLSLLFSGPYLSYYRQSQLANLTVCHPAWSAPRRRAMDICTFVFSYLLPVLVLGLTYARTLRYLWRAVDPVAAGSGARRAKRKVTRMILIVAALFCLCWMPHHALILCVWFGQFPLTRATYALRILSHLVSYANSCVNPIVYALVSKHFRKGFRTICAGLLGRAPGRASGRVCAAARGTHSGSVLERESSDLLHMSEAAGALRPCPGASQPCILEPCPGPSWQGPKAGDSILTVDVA
PKD1 kinase inh – PKD1 (human) kinase inhibition; Q15139; PKD1 kinase fluorescence polarization assay; inhibition, %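 (about 10 µM by stock and volumes)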; 200,000 compounds, 0.056% hits;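 active = inhibition of 50% or more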;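 note: controls were vehicle for no effect and a reference inhibitor for full effect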
RGS16-Gao – RGS16-Galphao interaction regulator (human); O15492+P09471; bead-based flow cytometry RGS16-Galphao binding, fluorescence; actives lie on both sides; binding response (% of control), % at 10 µM; 220,000 compounds, 0.38% hits;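 active = below 25% or above 175%, edge rows of some plates excepted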;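 note: Galphao activated by GDP with aluminum fluoride before binding; 100% = wells without compound and 0% = beads without RGS; some results beyond the cut were filed as inactive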
Target sequence (O15492 whole entry, looked up): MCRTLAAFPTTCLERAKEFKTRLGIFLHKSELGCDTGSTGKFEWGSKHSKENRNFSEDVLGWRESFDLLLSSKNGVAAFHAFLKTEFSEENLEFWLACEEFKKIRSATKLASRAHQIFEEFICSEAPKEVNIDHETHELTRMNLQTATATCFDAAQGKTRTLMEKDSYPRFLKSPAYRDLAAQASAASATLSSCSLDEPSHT
Target sequence (P09471 whole entry, looked up): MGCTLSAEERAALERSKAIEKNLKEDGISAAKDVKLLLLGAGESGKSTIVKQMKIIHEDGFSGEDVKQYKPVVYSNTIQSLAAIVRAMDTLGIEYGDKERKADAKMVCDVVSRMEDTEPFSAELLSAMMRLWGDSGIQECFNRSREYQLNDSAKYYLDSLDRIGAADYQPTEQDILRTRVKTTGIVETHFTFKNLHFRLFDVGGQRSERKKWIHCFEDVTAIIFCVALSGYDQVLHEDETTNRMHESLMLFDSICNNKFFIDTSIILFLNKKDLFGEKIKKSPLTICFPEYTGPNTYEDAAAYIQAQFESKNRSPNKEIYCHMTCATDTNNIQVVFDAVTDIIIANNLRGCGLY
INS promoter inh cell count – further read-out of INS promoter inh, marked with its call; normalized cell count, %; measured here: cell count, toxicity; reference of the scale not given here;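 cells exposed to compound for 48 h; stained nuclei by imaging scaled within each plate; lower means fewer cells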
HSV augment primary fold – further read-out of HSV augment, marked with its call; fold increase; compound at 10 µM; measured here: primary screen fold increase 10 uM; tested in PC3 cells;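 GFP signal in the first replicate; 1 = infected wells without compound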
* = called active by the depositor; i = inactive; nt = not tested or not shown. An unsorted share of the library; any-hit rate near 1.3%.

Sample of the layout, two compounds:
SMILES	INS promoter inh	INS promoter inh cell count	HSV augment	HSV augment primary fold	GALR2 agonist	PKD1 kinase inh	RGS16-Gao
COc1ccc(C2c3sc(=O)[nH]c3SC3C4CCC(C4)C23)cc1OC (centres undefined)	38	121	i	1.1	-2.0	1	101
CCCn1c(/C=N/Nc2nc3ccccc3[nH]2)nc2ccccc21	38	58	i	0.66	-0.1	-3	110

All compounds of this part, from the start:
SMILES	INS promoter inh	INS promoter inh cell count	HSV augment	HSV augment primary fold	GALR2 agonist	PKD1 kinase inh	RGS16-Gao
COc1ccc(C2c3sc(=O)[nH]c3SC3C4CCC(C4)C23)cc1OC (centres undefined)	38	121	i	1.1	-2.0	1	101
CCCn1c(/C=N/Nc2nc3ccccc3[nH]2)nc2ccccc21	38	58	i	0.66	-0.1	-3	110
O=C(COc1ncnc2ccccc12)NC(=O)NCc1ccccc1	nt	nt	i	0.99	0.8	0	108
COc1cccc(NC(=O)C2CCCN(S(=O)(=O)c3ccc(-n4cnnn4)cc3)C2)c1 (centres undefined)	nt	nt	i	0.97	-1.9	-3	100
CCn1nc(C)c(CNC(=O)CC2C(=O)NCCN2CC(C)C)c1C (centres undefined)	nt	nt	i	0.93	nt	-2	105
COC(=O)CSCC(=O)Nc1nnc(-c2ccccc2C)s1	-65	80	i	0.94	nt	-2	108
O=C(CCS(=O)(=O)c1cc(Br)cc2c1N(C(=O)C1CC1)CC2)NCc1ccco1	-19	82	i	1	-2.5	3	207
CCN1C(=O)CS/C1=N\S(=O)(=O)c1ccc(Cl)cc1	-59	155	i	0.98	nt	-7	94
O=C1CC(SCCc2nc3ccccc3[nH]2)C(=O)N1c1ccc(Cl)cc1 (centres undefined)	-16	105	i	0.95	-1.6	13	98
Cc1c(/C=N/Nc2ccc(C(=O)O)cc2)c2ccccc2n1C	nt	nt	i	0.99	nt	nt	97
C=CCn1c(SCCOc2ccc(OC)cc2)nnc1C(CO)NC(=O)c1ccc(OC)cc1 (centres undefined)	7	190	i	0.96	-3.4	-6	93
S=c1[nH]nc(-c2cccs2)n1Cc1ccccc1	nt	nt	i	0.99	nt	1	112
Cc1cc(=O)[nH]c(N/N=C/c2ccc3c(c2)OCCO3)n1	nt	nt	i	0.81	nt	nt	113
CCCCNc1c(N)n(CCCC)c(=O)[nH]c1=O	9	114	i	0.95	-0.9	-6	97
COc1ccc(C2CC(=O)C3=C(C2)NC(C)=C(C#N)C3c2ccc(N(C)C)cc2)cc1 (centres undefined)	nt	nt	i	0.89	0.0	-8	98
O=C(COC(=O)c1ccccn1)Nc1cccc2ccccc12	nt	nt	i	0.92	nt	-4	103
O=C(Nc1cccc(N=Cc2cc(Cl)cc(Br)c2O)c1)c1ccco1	0	130	i	1.2	-0.1	-2	101
COc1ccc(C(=O)Nc2ccc([N+](=O)[O-])cn2)cc1OC	-7	100	i	0.89	-0.8	-6	105
CCc1ccccc1NC1c2ccccc2C(=O)N1c1cccnc1 (centres undefined)	nt	nt	i	1	-0.3	1	100
O=C(COC(=O)CCC(NC(=O)OCc1ccccc1)C(=O)OCC(=O)Nc1ccccc1)Nc1ccccc1 (centres undefined)	nt	nt	i	1.1	-1.1	-11	101
O=C1NNC(=O)C2C3C=CC(C4CC34)C12 (centres undefined)	19	76	i	0.61	-1.8	0	96
O=C(O)c1ccc(CNC(=S)Nc2ccccc2)cc1	-86	77	i	1.2	nt	-1	104
O=C(CN1C(=O)NC2(CCCC2)C1=O)NCCC1=CCCCC1	39	142	i	0.91	-2.0	-3	27
Cc1cc(C)nc(NC(=O)C(C)N2C(=O)c3ccccc3C2=O)n1 (centres undefined)	44	56	i	0.97	-2.3	-10	105
O=C(/C=C/c1ccc(S(=O)(=O)N2CCOCC2)cc1)N(CCO)Cc1ccccc1	nt	nt	i	1	nt	4	99
CCCCS(=O)(=O)Nc1ccc2c(c1)ncn2C1CCCCC1	19	101	i	0.84	-1.3	6	101
Cc1nnc(SCC(=O)NCc2cccs2)[nH]c1=O	-19	184	i	1.2	-3.5	5	105
CC(C)Oc1cccc(C(=O)Nc2ccc(Br)cc2F)c1	-35	73	i	0.83	-0.1	-4	121
Cc1ccc(OC(=O)NC2CCS(=O)(=O)C2)cc1C (centres undefined)	8	107	i	1	0.2	-2	99
O=c1cc(CN2CCN(c3ccccc3O)CC2)nc2sccn12	16	94	i	1	-1.6	-8	94
Cc1ccc(NC(=O)C2CCCN(S(=O)(=O)c3c(C)noc3C)C2)cc1 (centres undefined)	nt	nt	i	0.97	nt	-4	103
Cc1ccc(S(=O)(=O)N/N=C/c2cc(Br)ccc2O)cc1	nt	nt	i	0.93	nt	nt	102
CCCCC1(CC(=O)OC)C(=O)N(c2ccccc2)N(c2ccccc2)C1=O	-24	106	i	1	-0.7	14	106
Cc1c(C(=O)C(=O)NCCC2=CCCCC2)c2ccccc2n1C	nt	nt	i	1.1	-1.3	-5	97
Cc1cccc(-n2ncc3c(N(CCO)CCO)ncnc32)c1	-57	175	i	0.93	-0.7	0	106
OC(CNCC(c1ccc(Cl)cc1Cl)c1c[nH]c2ccccc12)c1ccccc1 (centres undefined)	-314	8	nt	nt	nt	6	106
Cc1c(C(=O)Nc2cccc(C(F)(F)F)c2)oc2ccc(S(=O)(=O)N3CCOCC3)cc12	nt	nt	i	0.99	-2.0	-6	97
Clc1cccc(CSc2nnc(-c3c[nH]c4ccccc34)o2)c1	nt	nt	i	1.1	-1.4	-3	108
CC(C)c1cc(C(=O)Nc2cc(Cl)ccc2O)no1	nt	nt	i	1.1	-0.1	3	98
c1cncc(-c2nnc(-c3cccnc3)nn2)c1	18	82	nt	nt	-0.6	-13	81
CCCCn1ccnc1C	nt	nt	i	0.84	nt	nt	96
Cc1ccc(NC(=O)CN2C(=O)NC(C)(c3ccc(Cl)cc3)C2=O)cc1S(=O)(=O)N1CCOCC1 (centres undefined)	-37	125	i	0.83	-2.2	-6	52
O=S(=O)(Nc1ccc(Oc2ncccn2)c(Cl)c1)c1ccc(Cl)cc1	-114	127	nt	nt	-1.1	5	103
COc1ccccc1N1CCN(C(=O)c2ccccc2NC(=O)C2CCCCC2C(=O)O)CC1 (centres undefined)	36	55	i	1.1	-1.2	-12	81
CC(=O)Nc1ccc(S(=O)(=O)Nc2cccc(C(=O)NC(C)(C)C)c2)cc1	12	66	i	0.89	-1.8	3	100
COc1ccc(N(C(C)C(=O)Nc2ccc(S(=O)(=O)N3CCOCC3)cc2)S(C)(=O)=O)cc1 (centres undefined)	-29	81	i	0.92	nt	-9	112
FC(F)(F)c1nnc2sc(-c3ccncc3)nn12	nt	nt	i	0.85	-0.9	-6	104
CC1CCCC(NC(=O)COC(=O)[C@@H](NC(=O)c2ccco2)C(C)C)C1C (some centres undefined)	nt	nt	i	0.97	nt	-7	99
NC1=NC2(CCC(c3ccccc3)CC2)n2c(nc3ccccc32)N1 (centres undefined)	nt	nt	nt	nt	1.5	0	114
O=C(c1ccc(F)cc1)C1CCN(C(=S)NCC2CCCO2)CC1 (centres undefined)	33	76	i	1	nt	0	98
Cc1onc(-c2ccccc2)c1C(=O)c1c[nH]c(C(=O)NCc2ccncc2)c1	-20	105	i	0.8	nt	6	103
Cc1ccc(-n2nc3c(c2NC(=O)c2c(-c4ccccc4Cl)noc2C)CSC3)cc1	nt	nt	i	0.79	0.0	-5	104
COc1cc(C2Nc3ccccc3NC3=C2C(=O)CC(c2ccc(OC)c(OC)c2)C3)ccc1O (centres undefined)	nt	nt	i	1.1	nt	nt	101
O=C(C1CCN(CC2CCCCC2)CC1)N1CCCC1	nt	nt	i	0.75	-2.6	-12	125
O=C(CCC(=O)c1ccc(F)cc1)Nc1cccc(C(F)(F)F)c1	-3	128	i	0.91	-0.5	-4	105
COC(=O)C(CCCN1C(=O)c2ccccc2C1=O)(NC(C)=O)c1nnn(C)n1 (centres undefined)	22	125	i	1	nt	-9	106
O=C1CSC(c2cccnc2)N1c1cccc(Cl)c1 (centres undefined)	25	110	i	1	nt	-3	89
CC1=C(C(=O)Nc2ccc(Cl)cc2)C(c2cccs2)n2nnnc2N1 (centres undefined)	21	89	i	0.74	-2.5	12	92
Cn1c(=O)c2c(ncn2CC(=O)N/N=C/C=C/c2ccccc2[N+](=O)[O-])n(C)c1=O	nt	nt	i	1	nt	nt	101
CC1CCC(NC(=O)CC(C)(C)Cc2nc3ccccc3c(=O)[nH]2)CC1 (centres undefined)	11	213	i	0.84	-1.2	-9	90

New compounds follow:
SMILES	INS promoter inh	INS promoter inh cell count	HSV augment	HSV augment primary fold	GALR2 agonist	PKD1 kinase inh	RGS16-Gao
COc1ccc(Br)cc1/C(C)=N/NC1=NCCN1	-79	26	i	0.88	-2.7	7	105
O=C(CSc1nnc(-c2cccs2)o1)N1CCc2ccccc21	36	151	i	0.89	-2.2	19	101
Cc1cccc(CSc2nc3c(c(=O)[nH]2)CCCC3)c1	22	100	i	0.92	-1.3	-1	103
O=C(NC(=S)Nc1ccccc1Cl)c1cnn2c(C(F)(F)F)cc(C(F)(F)F)nc12	nt	nt	i	0.97	nt	nt	97
COC(=O)CC1C(=O)NCCN1C(=O)Nc1ccc(Cl)c(Cl)c1 (centres undefined)	nt	nt	i	1.1	nt	-6	nt
O=[N+]([O-])c1ccccc1NCCOc1ccccc1	0	118	i	1	-0.9	-8	108
Cc1ccc(-n2nc3c(c2NC(=O)/C=C\c2ccc4c(c2)OCO4)CSC3)c(C)c1	37	102	nt	nt	-1.9	-4	105
CC1CCCCN1CCNC(=O)c1cnn2ccccc12 (centres undefined)	nt	nt	i	1.1	-1.6	-5	106
COc1ccc(CNC(=O)C2CCN(C(=O)N(C)C)CC2)c(OC)c1	-40	69	i	1	-2.3	-7	106
CN(NC1OC(=O)c2ccccc21)c1ccccc1[N+](=O)[O-] (centres undefined)	nt	nt	i	0.9	nt	nt	106
Cc1ccc(NC(=O)CSc2nnc(CN3CCOCC3)n2C)cc1C	19	96	i	1.1	-1.7	-2	101
CCCCOP(=O)(OCCCC)C(Nc1ccccc1)c1ccc2c(c1)OCO2 (centres undefined)	-23	95	i	0.86	1.0	-2	101
COc1ccc(S(=O)(=O)Nc2ccccc2Cl)cc1NC(C)=O	nt	nt	i	0.88	nt	0	93
CCOc1ncccc1C(=O)OCC(=O)c1cccc(Br)c1	nt	nt	i	0.92	nt	-8	69
CCN(CC)S(=O)(=O)c1ccc(OC)c(NC(=O)C2CC(=O)N(c3ccc(C)cc3)C2)c1 (centres undefined)	nt	nt	i	1	nt	-6	104
CC1(C)Cc2nc3oc4c(N(CCO)Cc5ccccc5)ncnc4c3cc2CO1	12	58	i	0.77	0.1	-16	103
COc1ccc(OC)c(C(=O)Cn2c3[n+](c4ccc(C(F)(F)F)cc42)CCCCC3)c1	24	112	i	0.93	nt	3	102
CC(CN1CCOCC1)OC(=O)/C=C/c1ccccc1 (centres undefined)	53	56	i	1.1	nt	-10	98
COc1ccc(C(CNC(=O)c2ccc(S(=O)(=O)N3CCCC3)cc2)N(C)C)cc1OC (centres undefined)	-65	114	i	0.92	nt	5	101
COc1ccc2c(c1OC)C(=O)OC2n1c(O)c(N=NC(C)=O)c2ccccc21 (centres undefined)	nt	nt	i	1.2	nt	nt	103
Cc1cccc(OCC(=O)N/N=C/C=C/c2ccco2)c1	nt	nt	i	1.1	-0.3	3	108
CCOC(=O)c1ccccc1NC(=O)COc1ccccc1	-47	89	i	0.95	-1.1	8	106
N=c1oc2ccc3ccccc3c2cc1-c1nc(-c2ccccc2)cs1	-35	108	i	1.2	1.0	5	100
O=C(CNC(c1ccccc1)c1ccccc1)Nc1cc([N+](=O)[O-])ccc1Cl	-80	30	i	0.92	-1.5	12	110
Cn1ncc(C#N)c1/N=C/N1CCOCC1	-288	99	i	0.98	-2.2	-1	98

Two of the compounds above, with two lines to a compound:
Every second line gives: INS promoter inh, INS promoter inh cell count, HSV augment, HSV augment primary fold, GALR2 agonist, PKD1 kinase inh, RGS16-Gao
> CC1(C)Cc2nc3oc4c(N(CCO)Cc5ccccc5)ncnc4c3cc2CO1
 : 12, 58, i, 0.77, 0.1, -16, 103
> COc1ccc(OC)c(C(=O)Cn2c3[n+](c4ccc(C(F)(F)F)cc42)CCCCC3)c1
 : 24, 112, i, 0.93, nt, 3, 102

Some of these compounds in order of molar mass, rising:
SMILES	INS promoter inh	INS promoter inh cell count	HSV augment	HSV augment primary fold	GALR2 agonist	PKD1 kinase inh	RGS16-Gao
CCOC(=O)c1ccccc1NC(=O)COc1ccccc1	-47	89	i	0.95	-1.1	8	106
N=c1oc2ccc3ccccc3c2cc1-c1nc(-c2ccccc2)cs1	-35	108	i	1.2	1.0	5	100
O=C(CNC(c1ccccc1)c1ccccc1)Nc1cc([N+](=O)[O-])ccc1Cl	-80	30	i	0.92	-1.5	12	110
